Screens: PubChem, National Center for Advancing Translational Sciences (NCATS)
MARV entry inh: qHTS for inhibitors of binding or entry into cells for Marburg Virus; Potency, µM (titrated, usually from 37.8 µM), for inactives: at the highest dose activity change, negative = inhibition, usual class: inhibitors; Marburg virus pseudotyped entry inhibition, cell reporter; control for the full effect not named in the record; about a third of the inactives were read at about 46 µM; 300,000 compounds, 1.8% hits; active = well fitted inhibition curve with a large enough effect; inconclusive = small, poorly fitted or top-dose-only effect, or effect the other way; inactive = flat fitted curve, though single readings scatter; tested in HEK293 cells; about a fifth of its hits are not listed in these tables; note: % is set by controls: 0 for no effect and ±100 for the full control effect; luciferase read-out
Cruzain Triton: qHTS Assay for Promiscuous and Specific Inhibitors of Cruzain (with detergent); Potency, µM, inactives show max response, negative = inhibition, hits mostly inhibitors; purified cruzain, Z-FR-AMC fluorescence, 0.01% Triton; 200,000 compounds, 0.43% hits; Cruzipain (Trypanosoma cruzi), P25779; active = well fitted curve in the direction sought with a large enough effect; inconclusive = small, poorly fitted or top-dose-only effect, or another doubt; inactive = no such curve, though single readings can be large; an effect the other way counts as inactive or inconclusive;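 note: plate controls were neutral wells for no effect and buffer without enzyme for full effect; nearly all actives have a fitted effect of over 40% in size; top concentration of the series not given in the record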
Target sequence (P25779 123-467 limits assumed): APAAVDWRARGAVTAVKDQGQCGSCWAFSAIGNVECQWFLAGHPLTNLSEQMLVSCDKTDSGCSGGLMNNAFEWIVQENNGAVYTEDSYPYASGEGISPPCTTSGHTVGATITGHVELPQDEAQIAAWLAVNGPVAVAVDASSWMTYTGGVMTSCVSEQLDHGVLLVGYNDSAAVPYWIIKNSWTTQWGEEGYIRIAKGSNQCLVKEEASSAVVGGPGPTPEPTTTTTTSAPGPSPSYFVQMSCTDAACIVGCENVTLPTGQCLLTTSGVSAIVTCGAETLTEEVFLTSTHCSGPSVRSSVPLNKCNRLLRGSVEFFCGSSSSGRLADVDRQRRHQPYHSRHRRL
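Enzyme 1.5 nM, Z-FR-AMC 2 uM, NaOAc 100 mM pH 5.5, DTT 5 mM, Triton X-100 0.01%; 15 min RT compound preincubation; kinetic ex360/em450, 60 s delta.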
NS1 inh: qHTS Assay for Inhibitors of Influenza NS1 Protein Function. S. cerevisiae slowed by influenza A NS1, growth recovery by OD600. Potency, µM (highest dose often 46.1 µM), for the others: at the top dose activity, positive = more growth. 270,000 compounds, 0.4% hits. AID 2326, 2010; note: actives are rising curves; nearly all actives have a fitted effect of over 50% in size
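A cell-based growth assay was used: compounds that relieve NS1-induced slow growth of budding yeast raise OD600. Assay medium was yeast nitrogen base with ammonium sulphate and -URA supplement, pH 6.0, with 2% galactose.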
Lassa entry inh: qHTS for Inhibitors of binding or entry into cells for Lassa Virus. Lassa virus pseudotype entry inhibition, cell reporter; control for the full effect not named in the record. Potency, µM (titrated, usually from 37.9 µM), for the others: top-dose activity change, negative = inhibition, actives largely listed as inhibitors. 300,000 compounds, 1.2% hits. AID 540256, 2011; active means well fitted inhibition curve with a large enough effect; inconclusive means small, poorly fitted or top-dose-only effect, or effect the other way; inactive means flat fitted curve, though single readings scatter; tested in HEK293 cells; note: % is set by controls: 0 for no effect and ±100 for the full control effect; nearly all actives have a fitted effect of over 50% in size; luciferase read-out
RE007 growth inh: qHTS Assay for Inhibitors of the HIV-1 protein Vpr; Potency, µM (highest dose often 92.2 µM), inactives show at the highest dose activity change, negative = less growth; 360,000 compounds, 0.21% hits; S. pombe RE007 Vpr strain, BacTiter-Glo ATP luminescence, 24 h; control for the full effect not named in the record; active = well fitted falling curve with a large enough effect; inconclusive = small, poorly fitted or top-dose-only effect; inactive = no such curve, though single readings can be large or run the other way;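 note: % is set by controls: 0 for no effect and ±100 for the full control effect; nearly all actives have a fitted effect of over 50% in size; the assay follows cell death caused by Vpr and the record does not say whether a fall means rescue or toxicity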
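Fission yeast RE007 carrying one integrated HIV-1 vpr copy, seeded at OD 0.01 in PMG+AL medium with 23 nL pinned compound. Grown 24 h at 30 degrees; viability read by BacTiter-Glo luminescence after 5 min.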
StopGo reporter: High Throughput Screening for Foot and Mouth Disease Virus Antivirals; 410,000 compounds, 1.2% hits; human cells with a luciferase reporter of 2A StopGo recoding; control for the full effect not named in the record; Potency, µM (titrated, usually from 57.9 µM), inactives show at the highest dose signal change, negative = less light; active = well fitted falling curve with a large enough effect; inconclusive = small, poorly fitted or top-dose-only effect; inactive = no such curve, though single readings can be large or run the other way; tested in HEK293T cells; note: % is set by controls: 0 for no effect and ±100 for the full control effect; nearly all actives have a fitted effect of over 45% in size; luciferase light after 4 h
SARS PLP yeast: qHTS of Yeast-based Assay for SARS-CoV PLP; S. cerevisiae expressing SARS-CoV PLpro, growth rescue; control for the full effect not named in the record; Potency, µM (series often up to 32.9 µM), inactives show top-dose activity, positive = growth rescue; AID 485353, 2010; 330,000 compounds, 0.19% hits; note: 0% is about no effect; nearly all actives have a fitted effect of over 55% in size; growth read by luminescence after 48 h
Cruzain noTriton: qHTS Assay for Promiscuous and Specific Inhibitors of Cruzain (without detergent); Cruzipain (Trypanosoma cruzi), P25779; purified cruzain, Z-FR-AMC fluorescence, no detergent; Potency, µM, for inactives: max response, negative = inhibition, actives largely listed as inhibitors; 200,000 compounds, 2.3% hits; AID 1476, 2009; active = well fitted curve in the direction sought with a large enough effect; inconclusive = small, poorly fitted or top-dose-only effect, or another doubt; inactive = no such curve, though single readings can be large; an effect the other way counts as inactive or inconclusive;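 note: plate controls were enzyme without inhibitor for no effect and buffer without enzyme for full effect; nearly all actives have a fitted effect of over 40% in size; top concentration of the series not given in the record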
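Detergent-free condition (0.00005% Triton X-100) in acetate buffer pH 5.5 with DTT. 1.5 nM enzyme and compound were pre-mixed 15 min, then 2 uM Z-FR-AMC substrate added; reaction progress from fluorescence change between first and third reads (60 s).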
An asterisk follows results filed as active; ? = inconclusive; . = not tested or not shown; & = joins results of further samples; [ ] = another dose, or the depositor's remark. Unless noted, calls come from the whole dose curve; as a rule, active means well fitted rising curve with a large enough effect; inconclusive means small, poorly fitted or top-dose-only effect; inactive means no such curve, though single readings can be large or run the other way. Potency is the fitted concentration of half-maximal effect.

SMILES	MARV entry inh	Cruzain Triton	NS1 inh	Lassa entry inh	RE007 growth inh	StopGo reporter	SARS PLP yeast	Cruzain noTriton
CCOC(=O)c1c(NC(C)=O)sc(C(=O)NC2CCCC2)c1C	0%[46.1 µM]	.	2%	0%	10%	-15%	-1%	.
Cc1nc(-c2ccc(C(=O)Nc3cccc(Br)c3)cc2)cs1	.	.	-9%	.	?	-40%	-2%	.
COc1ccc(OC)c(C(=O)c2coc3ccc(O)c(CN(C)C)c23)c1	.	.	5%	.	1%	4%	-1%	.
Cc1ccc2nc3c(c(C(=O)OC4CCOC4=O)c2c1)CCCC3 (stereo not drawn)	1%[46.1 µM]	.	.	.	-8%	7%	-1%	.
CC1CCCC(C)N1C(=O)COc1ccccc1F (stereo not drawn)	4%[46.1 µM]	.	-5%	20%[46.1 µM]	-12%	40%[activator]	0%	.
COC(=O)c1sccc1S(=O)(=O)N(CC(=O)Nc1ccccc1C)c1ccc(Cl)cc1	.	-5.2%	.	?	.	-10%	.	2%
O=C(Nc1cc(S(=O)(=O)N2CCOCC2)ccc1O)c1ccco1	-8%[46.1 µM]	3.7%	2%	14%	-2%	2%	5%	-9%
COc1ccccc1N1CCN(C(=O)c2cc(-c3ccc(Br)cc3)on2)CC1	.	2.6%	-115%	.	10%	-19%	1%	16%
NCCc1nnc(SCc2ccccc2)o1	5%	1.0%	0%	?	14%	-11%	-1%	5%
NC(=O)NC(=O)COC(=O)/C=C/c1cccc(Br)c1	.	.	1%	.	7%	-8%	-1%	.
CC(=O)NCCOc1c(C)cc(S(N)(=O)=O)cc1C	6%	1.9%	4%	17%	4%	10%	9%	-11%
Cc1ccc(CNc2ccc3c(c2)ncn3C)cc1	?	-1.0%	-5%	-2%	-5%	.	-7%	-6%
CC(=O)c1cccc(NC(=S)Nc2cccc3ccccc23)c1	.	.	-8%	.	-7%	26%	?	.
CCN(C(=O)COC(=O)c1cc([N+](=O)[O-])ccc1N1CCCCC1)C1CCS(=O)(=O)C1 (stereo not drawn)	-9%[46.1 µM]	.	-1%	1%	-10%	-18%	0%	.
CCN(Cc1ccccc1)S(=O)(=O)c1ccc(F)cc1	.	.	-15%	.	6%	-8%	1%	.
Cc1ccc(NC(=O)CCNS(=O)(=O)c2ccc(Br)cc2)cc1S(=O)(=O)N1CCOCC1	?	.	.	1%	-13%	49%[activator]	?	.
C#CCN1C(=O)S/C(=C/c2cc(C)n(CC)c2C)C1=O	?	-0.5%	-1%	?	-2%	8%	12%	-8%
COc1ccc(-c2nc3ccccc3n3c(-c4ccccc4)c4c(=O)n(C)c(=O)n(C)c4c23)cc1OC	3%[46.1 µM]	-1.6%	.	-12%[46.1 µM]	.	-1%	.	1%
O=C(OC1CCOC1=O)c1cc(-c2cccs2)nc2ccccc12 (stereo not drawn)	13%[46.1 µM]	.	.	-1%	-21%	2%	-8%	.
CNc1ccccc1C(C)(C)c1ccn[nH]1	-6%[46.1 µM]	.	14%	7%[46.1 µM]	7%	-16%	-1%	.
COc1ccc(CN2C3CCCC2CC(NC(=O)/C=C/c2ccccc2)C3)cc1 (stereo not drawn)	?	.	.	-2%[46.1 µM]	-11%	25%	2%	.
CC1(C)CC(=O)C(c2c[nH]c3ccccc23)C(=O)C1	9%[46.1 µM]	.	4%	21%[46.1 µM]	-3%	25%	-1%	.
CCCCCCCc1c(C#N)c(N)[nH]c(=S)c1C#N	?	.	0%	10%	26%	-8%	0%	.
O=C(c1ccc2ccccc2c1)C1CCCN(C(=O)c2noc3c2CCCC3)C1 (stereo not drawn)	-27%[46.1 µM]	.	-5%	?	-5%	-7%	-1%	.
C#CCSc1ncc(-c2ccccc2)cn1	?	.	.	16%	1%	23%	-3%	.

11 structures from above, sorted by molecular weight, descending.
SMILES	MARV entry inh	Cruzain Triton	NS1 inh	Lassa entry inh	RE007 growth inh	StopGo reporter	SARS PLP yeast	Cruzain noTriton
Cc1ccc(NC(=O)CCNS(=O)(=O)c2ccc(Br)cc2)cc1S(=O)(=O)N1CCOCC1	?	.	.	1%	-13%	49%[activator]	?	.
COc1ccc(-c2nc3ccccc3n3c(-c4ccccc4)c4c(=O)n(C)c(=O)n(C)c4c23)cc1OC	3%[46.1 µM]	-1.6%	.	-12%[46.1 µM]	.	-1%	.	1%
CCN(C(=O)COC(=O)c1cc([N+](=O)[O-])ccc1N1CCCCC1)C1CCS(=O)(=O)C1 (stereo not drawn)	-9%[46.1 µM]	.	-1%	1%	-10%	-18%	0%	.
COc1ccc(CN2C3CCCC2CC(NC(=O)/C=C/c2ccccc2)C3)cc1 (stereo not drawn)	?	.	.	-2%[46.1 µM]	-11%	25%	2%	.
O=C(c1ccc2ccccc2c1)C1CCCN(C(=O)c2noc3c2CCCC3)C1 (stereo not drawn)	-27%[46.1 µM]	.	-5%	?	-5%	-7%	-1%	.
O=C(OC1CCOC1=O)c1cc(-c2cccs2)nc2ccccc12 (stereo not drawn)	13%[46.1 µM]	.	.	-1%	-21%	2%	-8%	.
CCOC(=O)c1c(NC(C)=O)sc(C(=O)NC2CCCC2)c1C	0%[46.1 µM]	.	2%	0%	10%	-15%	-1%	.
CCN(Cc1ccccc1)S(=O)(=O)c1ccc(F)cc1	.	.	-15%	.	6%	-8%	1%	.
CC1CCCC(C)N1C(=O)COc1ccccc1F (stereo not drawn)	4%[46.1 µM]	.	-5%	20%[46.1 µM]	-12%	40%[activator]	0%	.
CC1(C)CC(=O)C(c2c[nH]c3ccccc23)C(=O)C1	9%[46.1 µM]	.	4%	21%[46.1 µM]	-3%	25%	-1%	.
C#CCSc1ncc(-c2ccccc2)cn1	?	.	.	16%	1%	23%	-3%	.

Other entries
SMILES	MARV entry inh	Cruzain Triton	NS1 inh	Lassa entry inh	RE007 growth inh	StopGo reporter	SARS PLP yeast	Cruzain noTriton
COc1ccc(C2NC(=O)C(C)S2)cc1 (stereo not drawn)	6%	1.7%	1%	?	-3%	-21%	2%	-1%
CCOc1ccc(N(CC)C(=O)CCNC(=O)Cn2ccc3ccccc3c2=O)cc1	9%	-5.5%	-3%	-10%	-9%	-8%	-7%	7%
COCCCN(C(=O)CCOc1ccc(C)cc1)c1c(N)n(Cc2ccccc2)c(=O)[nH]c1=O	-10%	.	.	?	2%	-2%	-1%	.
Cc1cc(C)cc(C(=O)N2CC(=O)Nc3ccc(Br)cc3C2c2ccccc2)c1 (stereo not drawn)	.	-0.6%	.	?	.	-20%	.	-4%
CCOc1ccccc1NC(=O)CCC(=O)Nc1ccc2nc(N3CCN(C)CC3)cc(C)c2c1	-7%	0.8%	0%	5%	12%	-12%	7%	11%
Cc1cc(-n2c(C)cc(C(=O)CSc3nc4ccccc4c(=O)n3Cc3ccco3)c2C)no1	-12%&-12%[46.1 µM]	5.1%	-13%	?	21%	25%	16%	-2%
Cc1ccc(-c2nc(CS(=O)CC(=O)NCCN3CCCCCC3)c(C)o2)cc1 (stereo not drawn)	.	.	15%	.	-23%	-5%	2%	.
